# Screens deposited in PubChem BioAssay by National Center for Advancing Translational Sciences (NCATS).
# FEN1 inh – inhibitors of human flap endonuclease 1. P39748. Recombinant FEN1 flap cleavage, fluorescence, 15 min. Potency, µM (titrated, usually from 114 µM), inactives show at the top dose activity change, negative = inhibition, usual class: inhibitors. 390,000 tested, 0.35% active; further: nearly all actives have a fitted effect of over 65% in size
# Target sequence (P39748 whole entry, looked up): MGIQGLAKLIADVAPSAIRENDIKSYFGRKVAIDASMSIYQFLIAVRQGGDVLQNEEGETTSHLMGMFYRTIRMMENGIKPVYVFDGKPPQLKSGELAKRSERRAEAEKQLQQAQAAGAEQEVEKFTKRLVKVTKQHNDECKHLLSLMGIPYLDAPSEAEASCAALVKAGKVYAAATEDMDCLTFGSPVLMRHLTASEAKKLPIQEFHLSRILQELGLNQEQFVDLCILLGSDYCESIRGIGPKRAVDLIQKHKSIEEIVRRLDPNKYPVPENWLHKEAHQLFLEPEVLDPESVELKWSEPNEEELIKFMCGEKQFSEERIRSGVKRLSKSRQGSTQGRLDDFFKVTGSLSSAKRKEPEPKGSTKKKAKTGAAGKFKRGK
#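 FEN1 at 10 nM preincubated with compounds 15 min at room temperature, then flap DNA substrate added at 50 nM final. Signal read at 0 and 15 min; concentration-response fitted with four-parameter Hill equation.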
# GCN5L2 inh – inhibitors of human GCN5L2 histone acetyltransferase. GCN5L2 HAT assay, ThioGlo1 CoA-SH fluorescence. Potency, µM (highest dose often 58.9 µM), for the others: top-dose activity change, negative = inhibition, most hits filed as inhibitors. Q92830. 390,000 tested, 0.21% active
#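 Fluorescence readout, Ex340nm/Em540nm: ThioGlo1 (50uM final) reacts with free CoA thiol released as 20nM GCN5L2 acetylates H3(1-25) peptide (75uM) using acetyl-CoA (70uM). Compound and enzyme sat 15 min beforehand; 20 min room-temperature reaction.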
# * marks the source's active call; other numbers are inactive results; ? = inconclusive; · = no result given; & = joins results of further samples; [ ] = dose if it differs, or a comment. The call rests on the fitted dose curve; in most records, active means well fitted curve in the direction sought with a large enough effect; inconclusive means small, poorly fitted or top-dose-only effect, or another doubt; inactive means no such curve, though single readings can be large; an effect the other way counts as inactive or inconclusive. On the % scale 0 is the no-effect control and ±100 the full control effect; potency means the concentration at half of the fitted maximal effect. Only part of the results is shown; most or all hits stand in other tables.
SMILES,FEN1 inh,GCN5L2 inh
C=CCOc1ccc(C(=O)Nc2ccc(OCC)cc2)cc1,9%,27%
CCOC(=O)c1c(Cc2cccc(Cl)c2)c[nH]c1C,2%,-9%
COc1ccc(C(=O)NNC(=O)CSc2nnc(-c3cccnc3)o2)cc1,2%,-6%
CNc1ccccc1C(=O)OC,-1%,-20%
Cc1ccccc1OCC(O)CN (configuration not stated),-10%,-7%
C=CCCN(C(CC(C)C)C(=O)OC)S(=O)(=O)c1ccccc1Br (configuration not stated),-34%&-22%,-14%
NC(=O)[C@@H]1CCCNc2c(I)cc([N+](=O)[O-])cc2C(=O)N[C@@H](CO)C(=O)NCC(=O)N1,2%,-3%
CC1Cc2ccccc2N1C(=O)CSc1nc2ccccc2o1 (configuration not stated),-1%,-4%
O=C(c1ccc(CS(=O)c2cccc(Cl)c2)o1)N1CCCCCC1 (configuration not stated),19%,-15%
O=C(Nc1ccc2c(c1)CCC2)c1cccc(S(=O)(=O)N2CCN(c3ccc(F)cc3)CC2)c1,-2%,-2%
Cc1cc(C)n2nc(C(=O)OCCOc3ccc(F)cc3)nc2n1,-2%,-9%
CC(=O)Nc1ccc2cc3ccc(NC(C)=O)cc3nc2c1,?,-21%
Cc1ccc(S(=O)(=O)Oc2ccc(C3C4=C(CCCC4=O)N(CCC(=O)O)C4=C3C(=O)CCC4)cc2Cl)cc1,12%,-10%
COC(=O)[C@@H](NC(=O)Nc1ccc(OC(F)(F)F)cc1)C(C)C,0%,-5%
CC(=O)Nc1ccc(Nc2ncnc3ccccc23)cc1,·,-4%
CC1(C)CC(=O)C=C(N2CCOCC2)C1,5%,-8%
CCn1c2ccccc2c2nnc(SCC(=O)NC3CCS(=O)(=O)C3)nc21 (configuration not stated),3%,-2%
CCOc1ncccc1C(=O)OCC(=O)Nc1cc(C(=O)OC)ccc1C(=O)OC,·,-3%
Cn1c(SCC(=O)Nc2ccc3nc(SCC(=O)NC4CC4)sc3c2)nnc1-c1ccccc1,2%,-2%
CC(C)c1ccc(NC(=O)C(c2ccccc2)N2CCN(C(=O)c3ccco3)CC2)cc1 (configuration not stated),-8%,-12%
NC(=O)c1cccn1Cc1ccccc1Cl,12%,0%
COc1ccc(C(=O)N/N=C/c2cccnc2)cc1,-4%,26%
CCCCN(C(=O)c1ccc2c(c1)OCO2)C1CCS(=O)(=O)C1 (configuration not stated),1%,3%
CC(=O)c1ccc(NC(=O)CN2CCC(C(=O)c3ccc4c(c3)OCCO4)CC2)cc1,2%,-6%
Cn1c(=O)c2c(nc(SCC(=O)NCc3ccc4c(c3)OCO4)n2Cc2ccccc2)n(C)c1=O,-4%,0%

# The list goes on, overlapping the part above by seven compounds.
SMILES,FEN1 inh,GCN5L2 inh
Cn1c(SCC(=O)Nc2ccc3nc(SCC(=O)NC4CC4)sc3c2)nnc1-c1ccccc1,2%,-2%
CC(C)c1ccc(NC(=O)C(c2ccccc2)N2CCN(C(=O)c3ccco3)CC2)cc1 (configuration not stated),-8%,-12%
NC(=O)c1cccn1Cc1ccccc1Cl,12%,0%
COc1ccc(C(=O)N/N=C/c2cccnc2)cc1,-4%,26%
CCCCN(C(=O)c1ccc2c(c1)OCO2)C1CCS(=O)(=O)C1 (configuration not stated),1%,3%
CC(=O)c1ccc(NC(=O)CN2CCC(C(=O)c3ccc4c(c3)OCCO4)CC2)cc1,2%,-6%
Cn1c(=O)c2c(nc(SCC(=O)NCc3ccc4c(c3)OCO4)n2Cc2ccccc2)n(C)c1=O,-4%,0%
CCOC(=O)Nc1ccc(NC(=O)c2c(OC)cccc2OC)cc1,-3%,-2%
CCOC(=O)c1ccc(N2C(=O)c3n[nH]c(-c4ccco4)c3C2c2cccc([N+](=O)[O-])c2)cc1 (configuration not stated),-14%,-11%
COc1ccc(CN(C)CC(O)COC(c2ccccc2)c2ccccc2)c(OC)c1OC (configuration not stated),-1%,1%
CCCCN(CC)C(=O)Cc1ccccc1OC,-2%,30%[activator]
COc1ccc(CN2C(=O)CSC2c2ccncc2)cc1 (configuration not stated),1%,0%
CCOP1(=O)C=C(C(C)(C)C)OC1c1ccc(F)cc1 (configuration not stated),-9%,-8%
Cc1onc(-c2c(Cl)cccc2Cl)c1C(=O)NCCc1ccc(S(N)(=O)=O)cc1,-3%,-5%
O=C(CS(=O)(=O)Cc1ccccc1)NCCc1ccc(F)cc1,11%,?
CC1CCCCN1CCNC(=O)c1cc2c(=O)n(C)c3ccccc3c2n1C (configuration not stated),?,-11%
CCCCNC(=O)/C(=C/c1ccco1)NC(=O)c1ccco1,1%,1%
O=C1C(=O)N(CCN2CCOCC2)C(c2ccccn2)/C1=C(/O)c1ccc(Cl)cc1 (configuration not stated),3%,-1%
COc1ccc(NC(=O)NNC(=O)c2ccccc2-n2cccc2)cc1OC,10%,-18%
Cc1ccc(C(=O)O/N=C(\N)Cc2cccs2)cc1[N+](=O)[O-],-1%,?
COCCn1c(=O)[nH]c(=O)c2cc(C(=O)c3cc(OC)ccc3O)cnc21,-2%,-1%
Cc1cccc(C(=O)NNC(=O)C2CC2)c1,21%,-5%
Cc1c(C(=O)N2CCN(c3ncccn3)CC2)oc2c(Cl)cccc12,0%,-17%
O=C(NCc1ccco1)C1CC(O)CN1C(=O)Nc1ccccc1 (configuration not stated),-1%,0%
O=C(COc1ccc(/C=N/NC(=O)C(=O)N2CCCCC2)cc1)Nc1ccccc1Cl,12%,-2%
CCOC(=O)C1CCN(C(=O)C(C)N(c2ccc(Oc3ccccc3)cc2)S(C)(=O)=O)CC1 (configuration not stated),13%,10%
O=C(Nc1cccc2ncccc12)c1cccc(Br)c1,3%,-2%
Cc1ccc(/C=N/NC(=O)c2nnn(-c3nonc3N)c2C(C)C)o1,20%,-5%
CCCNC(=O)c1ccccc1C(=O)NC1(C(=O)NCCC)CCCC1,-14%,-14%
CN(Cc1ccccc1)C(=O)CN1C(=O)c2ccccc2C1=O,2%,-10%
CCOc1ccc(-c2n[nH]c(=S)n2/N=C/c2cc3c(cc2[N+](=O)[O-])OCO3)cc1,-3%,-4%
COCCCn1c(C)c(C(C)=O)cc(NC(=O)c2ccccc2)c1=O,-1%,-9%
# More structures follow:
SMILES,FEN1 inh,GCN5L2 inh
CC1(C)C(=O)OC(c2ccccc2)C2(CCCC2)C1=O (configuration not stated),-2%,-3%
COC(=O)C1=C(C)N=C2SC(C#N)=C(N)N2C1c1cc(OC)c(OC)c(OC)c1 (configuration not stated),-8%,?
O=c1c(-c2cccs2)nc2cncnc2n1C1CC1,·,?
O=C(CC1CCS(=O)(=O)C1)NC1CCCCC1 (configuration not stated),-10%,0%
O=C(COc1ccccc1)NCC(=O)N/N=C/c1cccs1,22%,-1%
CCCCC1=CC2=C(c3ccco3)C(=O)C(C)(OC(=O)c3ccc(OC)cc3)C(=O)C2=CN1CCN1CCOCC1 (configuration not stated),10%,-17%
Cc1ccnc(NS(=O)(=O)c2cccc([N+](=O)[O-])c2)c1,12%,-13%
COCCn1c(SCC(=O)Nc2ccc3c(c2)OCCO3)nnc1C(C)C,-1%,-3%
CCn1c(SCC(=O)Nc2ccc(C)cc2)nc2nc3c(cc2c1=O)COC(C)(C)C3,13%,0%
COc1ccc(OC)c(S(=O)(=O)N2CCCC2C(=O)N2CCc3ccccc3C2)c1 (configuration not stated),13%,-3%
COc1ccc(/C=N/S(=O)(=O)c2ccc(C)cc2)cc1,-4%,-7%
Cc1nc2c(cnn2-c2ccccc2Cl)c(=O)n1-c1ccc(N2CCC(C)CC2)cc1,-10%,0%
O=C(COC(=O)c1cncc(Br)c1)Nc1nc(-c2ccc(F)cc2)cs1,-1%,-2%
CCn1c(=NC(=O)c2ccc(S(=O)(=O)N3CCOCC3)cc2)sc2cccc(OC)c21,-16%,-17%
CCN(CC)C(=O)Sc1cccc2cccnc12,-5%,0%
C/C(=N\O)C(C)(C)Nc1ccc(Br)cc1,12%,-2%
CCN(CC(=O)Nc1c(F)cccc1F)C(=O)c1ccc(C)c(S(=O)(=O)N2CCCCC2)c1,-3%,-5%
O=C(O)CN(c1ccccn1)S(=O)(=O)c1ccccc1,5%,-4%
CC12CCC(C(=O)NC3CCCC3)(CC1=O)C2(C)C (configuration not stated),-3%,-1%
CCNS(=O)(=O)c1ccc(NS(C)(=O)=O)cc1,-5%,-1%
Cc1ccc2c(CC(=O)OCn3nnc4ccccc4c3=O)coc2c1,-1%,-6%
Cn1c2c(c(=O)n(C)c1=O)C(c1cccc([N+](=O)[O-])c1)Nc1ccccc1O2 (configuration not stated),6%,0%
O=C(CN1CCc2cc3c(cc2C1)OCCCO3)Nc1cccc([N+](=O)[O-])c1,3%,-4%
Nc1ncc(-c2ccccc2)n1CC1CCCO1 (configuration not stated),-4%,-8%
O=C(CN1CCN(C(=O)c2ccco2)CC1)Nc1ccc2c(c1)OCCO2,-1%,-10%

# In another format: results already given.
Molecule	FEN1 inh	GCN5L2 inh
C=CCOc1ccc(C(=O)Nc2ccc(OCC)cc2)cc1	9%	27%
CCn1c(=NC(=O)c2ccc(S(=O)(=O)N3CCOCC3)cc2)sc2cccc(OC)c21	-16%	-17%

# A second format for part of the listing above.
FEN1 inh	GCN5L2 inh	mol
-1%	-4%	CC1Cc2ccccc2N1C(=O)CSc1nc2ccccc2o1 (configuration not stated)
-2%	-9%	Cc1cc(C)n2nc(C(=O)OCCOc3ccc(F)cc3)nc2n1

# Remaining list, next part
SMILES,FEN1 inh,GCN5L2 inh
O=C(CSc1nnnn1-c1cccc2ccccc12)NC(C(=O)O)(c1ccccc1)c1ccccc1,-9%,-1%
Cc1cc(C)n(CCC(=O)N2c3ccccc3CC2C)n1 (configuration not stated),5%,-1%
Cc1ccc(CN2C(=O)C(C)(C)Oc3ccc(C(=O)N4CCCCC4)cc32)cc1,4%,-5%
CCCn1cnc2cc(NCc3ccccc3O)ccc21,-1%,2%
COCc1cc(=O)n2[nH]cc(-c3ccsc3)c2n1,5%,-7%
CCC(=O)Nc1sc(C(=O)Nc2ccccc2)c(C)c1C(=O)OC,-14%,1%
CCCc1cc(C(=O)NCc2ccco2)no1,-4%,-5%
Cc1cc(C)c(NS(=O)(=O)c2ccc3c(c2)NC(=O)CCS3)c(C)c1,19%&6%,-14%&27%
O=C(CSc1ccccc1)N1CCCC(N2CCN(c3ccccc3)CC2)C1 (configuration not stated),18%,2%
CCOc1cccc(C2C(C(=O)c3ccc(C)o3)=C(O)C(=O)N2CCCn2ccnc2)c1 (configuration not stated),-5%,-4%
COc1ccccc1NC(=O)CSC1=NC(=O)C(NC(C)=O)C(=O)N1 (configuration not stated),-4%,-5%
Cc1cccc(C)c1NC(=O)NCCSc1snnc1C,21%,5%
COC(=O)c1ccc(N2NC(=O)/C(=C/c3cc(OC)c(OC)c(OC)c3)C2=O)cc1,8%,0%

# Sorted by heavy-atom count (ascending): some entries from above
SMILES,FEN1 inh,GCN5L2 inh
O=C(COc1ccccc1)NCC(=O)N/N=C/c1cccs1,22%,-1%
Cc1ccc2c(CC(=O)OCn3nnc4ccccc4c3=O)coc2c1,-1%,-6%
CCN(CC(=O)Nc1c(F)cccc1F)C(=O)c1ccc(C)c(S(=O)(=O)N2CCCCC2)c1,-3%,-5%
Cn1c(=O)c2c(nc(SCC(=O)NCc3ccc4c(c3)OCO4)n2Cc2ccccc2)n(C)c1=O,-4%,0%
